High-throughput results deposited in PubChem by National Center for Advancing Translational Sciences (NCATS).
2A Renilla: lowers the Renilla signal of an FMDV 2A StopGo reporter; 120,000 compounds, 0.32% hits; HEK cells with a luciferase reporter of 2A StopGo recoding; Potency, µM (titrated, usually from 57.5 µM), for the others: top-dose signal change, negative = less light; active means well fitted falling curve with a large enough effect; inconclusive means small, poorly fitted or top-dose-only effect; inactive means no such curve, though single readings can be large or run the other way; note: nearly all actives have a fitted effect of over 55% in size; overnight with compound
StopGo FLuc: FMDV 2A StopGo reporter, firefly signal; AID 1745856; Potency, µM (doses to about 57.5 µM), inactives show at the top dose signal change, negative = less light; 120,000 compounds, 0.23% hits; HEK cells with a luciferase reporter of 2A StopGo recoding; active = well fitted falling curve with a large enough effect; inconclusive = small, poorly fitted or top-dose-only effect; inactive = no such curve, though single readings can be large or run the other way; note: nearly all actives have a fitted effect of over 60% in size; overnight with compound
The depositor's hits bear a star; ? = inconclusive; [ ] = dose if it differs, or a comment. % is set by controls: 0 for no effect and ±100 for the full control effect; potency is the fitted concentration of half-maximal effect.

| compound | 2A Renilla | StopGo FLuc |
| --- | --- | --- |
| Cc1ccccc1NC(=O)C(C)Sc1ccc(C(F)(F)F)cn1 (stereo not given) | -2%[1.06 µM] | 10% |
| COc1cc(C(=O)Nc2c(N3CCCC3)c3ccccc3oc2=O)cc(OC)c1OC | 13% | 9% |
| C/C=C/c1ccc(OCC(=O)N2CCN(CCOc3ccccc3)CC2)c(OC)c1 | -4% | 74%[activator] |
| CCOC(=O)N1CCc2c(sc(NCc3ccc(N(CC)CC)cc3)c2C(=O)Nc2cc(OC)ccc2OC)C1 | -9% | -14% |
| CCC1CN(C(=O)Nc2ccccc2C(F)(F)F)c2ccccc2O1 (stereo not given) | -6% | -12% |
| COCCn1c(C)cc(C(=O)CSc2nnc(Nc3ccccc3C)s2)c1C | 39%[activator] | 55%[activator] |
| COc1ccc(S(=O)(=O)Nc2ccccc2OC)cc1NC(=O)c1cccc(-n2cccc2)c1 | 127%[activator] | 23% |
| CC(C)(C)c1ccc(OCc2nn3c(CN4CCOCC4)nnc3s2)cc1 | -5% | ? |
| COc1ccccc1CNC(=O)c1cnn(-c2ccc(F)cc2F)c1C1CCN(C(=O)OC(C)(C)C)CC1 | 2% | -16% |
| CCc1cc(C(=O)Nc2cnn(Cc3ccc(F)cc3)c2)no1 | 8% | 126%[activator] |
| COc1ccc(C2C(C(=O)Nc3cccnc3)=C(C)Nc3nc(SCc4ccccc4)nn32)cc1 (stereo not given) | -13% | -10% |
| O=C(OCc1cccc2ccccc12)c1cc2ccccc2[nH]1 | 0% | 0% |
| O=C(c1ccncc1)N(Cc1ccccc1)Cc1cc2ccccc2[nH]c1=O | 32%[activator] | 0% |
| O=C(CSc1nc(=O)n(Cc2ccncc2)c2c1CCC2)Nc1ccc(F)cc1F | -3% | -2% |
| COc1ccccc1C(=O)N1c2ncnn2C2(CCCCC2)[C@@H]2CCCC[C@@H]21 | -17% | -8% |
| O=S1(=O)C[C@H](N2CCN(c3ncccn3)CC2)[C@@H](S(=O)(=O)c2ccccc2)C1 | -12% | -6% |
| CC1CCCN(c2nc3c(c(=O)[nH]c(=O)n3C)n2CCCSc2nc3ccccc3o2)C1 (stereo not given) | -2% | 3% |
| O=C(Cn1c(=O)n(-c2ccc(Cl)cc2)c(=O)c2c3c(sc21)CCCCC3)Nc1cccc(Cl)c1 | 7% | -13% |
| O=C(Nc1ccc2nc(SCC(=O)N3CCOCC3)sc2c1)c1cccc(F)c1 | 35%[activator] | -11% |
| O=C(Cc1ccc(Cl)c(Cl)c1)NC1(c2ccccc2)CCC1 | 14% | -7% |
| CSc1ccccc1NC(=O)C1CC=CCC1 (stereo not given) | 6% | 0% |
| CCOc1ccc(CN2CCc3nc(Nc4ccc5c(c4)OCCO5)ncc3C2)cc1 | -12% | 36%[activator] |
| Cc1ccc2c(=O)cc(C(=O)Nc3c(C)n(C)n(-c4ccccc4)c3=O)oc2c1C | -6% | -18% |
| CCOC(=O)c1c(C)[nH]c(CCC(=O)Nc2ccc(C)c(F)c2)c1C | -4% | -5% |
| CCCn1nc(C)cc1CN(C)c1ccc(NC(=O)c2ccccc2C)cc1C(=O)O | 18% | 23% |
| CSc1ccc(CCNC(=O)c2ccc(CS(=O)Cc3ccc(Cl)cc3)o2)cc1 (stereo not given) | -30% | ? |
| Cc1nc2cc(NC(=O)c3ccc[n+]([O-])c3)ccc2o1 | 1% | 10% |
| CCCc1cc(=O)oc2cc(OCC(=O)Nc3cc(C)on3)ccc12 | -14% | -1% |
| CCOc1ccc(CCNC(=O)c2nn(C)c3c2CSc2ccc(C)cc2-3)cc1OCC | -20% | -25% |
| CCn1cnnc1-c1cccc(NC(=O)Cc2ccc3c(c2)CCC3)c1 | 20% | 4% |
| Cc1c(C)n(Cc2ccc(F)cc2)c2ccc(C(=O)N3CCN(c4ccc(Cl)cc4)CC3)cc12 | 92%[activator] | 27% |
| O=C(c1ccc2c(c1)N(Cc1ccccc1F)C(=O)c1ccccc1S2(=O)=O)N1CCCCC1 | 166%[activator] | -7% |
| Cc1cccc(C)c1Nc1c(-c2ccsc2)nc2ccccn12 | -1% | -21% |
| CC(Sc1nc2ccc(F)cc2c(=O)[nH]1)C(=O)NC1CCCCC1 (stereo not given) | -5% | -1% |
| O=C(Cn1cc(SCc2c(F)cccc2Cl)c2ccccc21)N1CCCC1 | 88%[activator] | 135%[activator] |
| COC(=O)c1c(COc2ccc(C)nc2[N+](=O)[O-])nc2ccccc2c1C | -34% | -22% |
| CCCCN1C(C(=O)c2ccccc2)=C(OC(C)=O)c2ccccc2S1(=O)=O | -24% | ? |
| CCc1ccc(NS(=O)(=O)c2ccc(-c3cc(C)no3)cc2)cc1 | 84%[activator] | -29% |
| Cc1cc(Cl)ccc1NC(=O)Cc1ccc(NC(=O)N2CCCCc3ccccc32)cc1 | -11% | -12% |
| O=C(Nc1ccc(Cc2ccncc2)cc1)Nc1ccc(Cc2ccncc2)cc1 | 4% | 11% |

By substructure: those above with a tert-butyl group (two)
| compound | 2A Renilla | StopGo FLuc |
| --- | --- | --- |
| CC(C)(C)c1ccc(OCc2nn3c(CN4CCOCC4)nnc3s2)cc1 | -5% | ? |
| COc1ccccc1CNC(=O)c1cnn(-c2ccc(F)cc2F)c1C1CCN(C(=O)OC(C)(C)C)CC1 | 2% | -16% |

(listing goes on)
| compound | 2A Renilla | StopGo FLuc |
| --- | --- | --- |
| CCC(=O)Nc1ccccc1-c1nc2ccccc2n(CC(=O)Nc2ccc(C(C)=O)cc2)c1=O | -1% | 16% |
| N#Cc1nc(-c2ccc(S(=O)(=O)N3CCOCC3)cc2)oc1NCCN1CCOCC1 | 49%[activator] | 4% |
| CCn1c(=O)c2c(nc(-n3nc(C)cc3C)n2Cc2c(Cl)cccc2Cl)n(C)c1=O | -8% | -10% |
| COc1ccc(NS(=O)(=O)c2ccc3[nH]c4c(c3c2)CCCC4)c(OC)c1 | 167%[activator] | -10% |
| Cc1ccc(S(=O)(=O)NC2=NCN(Cc3cccnc3)CN2)cc1 | -6% | -1% |
| Cc1ccccc1Cn1cnc2c(oc3ccccc32)c1=O | 183%[activator] | 74%[activator] |
| Cn1cccc1/C=C(\C#N)c1ccc(Cl)cc1 | 0% | 2% |
| Cc1cc(C)cc(C(=O)Nc2ccc(N(C)C)cc2)c1 | 5% | 0% |
| COc1cccc(-n2c(=O)c3c(C)c(C)sc3n(CC(=O)NCc3ccccc3)c2=O)c1 | -11% | -2% |
| CCCCOc1ccc(C(=O)Nc2ccc3c(c2)N(C(C)=O)CCC3)cc1 | -12% | 1.3µM* |
| Cc1ccc(N2CC(c3nc4ccccc4n3CCC3CCCCC3)CC2=O)cc1 (stereo not given) | -11% | -17% |
| Cc1ccccc1OCC(=O)N1CCN(CCc2ccccn2)CC1 | -13% | -13% |
| CCS(=O)(=O)N1CCCc2cc(C(=O)Nc3c(C)cccc3C(C)C)ccc21 | 1% | 19% |
| Cc1ccc(C(=O)/C=C/c2ccc(-c3cc(Cl)ccc3Cl)o2)cc1 | -1% | 4% |
| COc1ccccc1CNC(=O)c1cccc(C)c1 | 18% | 30%[activator] |
| O=S(=O)(Cc1ccccc1Cl)N1CCCc2ccccc21 | 25% | 78%[activator] |
| Cc1cc(Nc2cc(F)ccc2C)nc(-n2nc(C)cc2C)n1 | -14% | ? |
| COc1ccc(OC)c(S(=O)(=O)Nc2ccc3c(c2)CCCN3C(=O)c2cccnc2)c1 | 178%[activator] | 8% |
| CCn1cnc2c1c(=O)n(CC(=O)N(C)Cc1ccc(Cl)s1)c(=O)n2Cc1ccccc1 | 20% | -2% |
| O=c1c(Cl)c(N2CCN(Cc3nnc(-c4ccc(Cl)cc4)o3)CC2)cnn1-c1ccccc1 | ? | ? |

Reprinted at random: 2 records from the list, in no set order.
| compound | 2A Renilla | StopGo FLuc |
| --- | --- | --- |
| COc1cccc(-n2c(=O)c3c(C)c(C)sc3n(CC(=O)NCc3ccccc3)c2=O)c1 | -11% | -2% |
| Cc1ccc(N2CC(c3nc4ccccc4n3CCC3CCCCC3)CC2=O)cc1 (stereo not given) | -11% | -17% |

(list continues)
| compound | 2A Renilla | StopGo FLuc |
| --- | --- | --- |
| Cc1ccc(NC(=O)CSc2nc3ccccc3c3nc(CCn4c(C)nc5ccccc54)nn23)cc1F | -12% | -16% |
| Clc1cccc(C2NCc3ccccc3-n3cccc32)c1 (stereo not given) | -20% | -1% |
| CCOc1ccc(CNS(=O)(=O)c2cc(-c3noc(C)n3)cs2)cc1 | -23% | ? |
| Cc1cc(C)cc(-n2c(=O)c3sccc3n(CC(=O)NC3CCc4ccccc43)c2=O)c1 (stereo not given) | -6% | 5% |
| O=C(NC(NC(=O)c1ccccc1)c1cccc(F)c1)c1ccccc1 | 77%[activator] | -2% |
| Cc1ccccc1-c1nc(CSc2nc(C)c(C)c(=O)[nH]2)c(C)o1 | 26% | 21% |
| O=C(NCc1ccc2c(c1)CCN2C(=O)c1ccc(F)cc1)c1cc2ccccc2[nH]1 | -9% | -15% |
| Cc1ncc(-c2ccc(S(=O)(=O)Nc3cccc(Cl)c3)cc2)o1 | 219%[activator] | -2% |
| O=C(Cn1c(=O)n(CCc2ccccc2)c(=O)c2sccc21)c1ccccc1 | 130%[activator] | 144%[activator] |
| CCCc1nc(C#N)c(NCCc2ccc(OC)c(OC)c2)o1 | 0% | 54%[activator] |
| CN1C(=O)C(C)(C)c2cc(S(=O)(=O)NCc3ccc(C(=O)Nc4ccc(Cl)cc4)cc3)ccc21 | ? | ? |
| CCN(CC)c1ccc(NC(=O)CSc2nc3ccccc3c(=O)[nH]2)cc1 | -11% | 14% |
| O=C(CCc1ccccc1)Nc1c(NC2CCCCC2)c2ccccc2oc1=O | 45%[activator] | 9% |
| CCCCNCc1ccc(F)cc1 | 0% | -8% |
| CCCCCc1ccc(-c2ccc(-c3ccc(O)cc3)cn2)cc1 | -11%[1.06 µM] | 70%[activator] |
| Cc1ccc(N(C)S(=O)(=O)c2ccc3[nH]c(=O)ccc3c2)cc1 | -8% | 2% |
| CN(C)c1ccc(C(=O)OCc2nc(N)c3ccccc3n2)cc1 | 31%[activator] | 48%[activator] |
| COC(=O)CSc1nc(N2CCCCC2)c2c(c1C#N)CCCC2 | 25% | 0% |
| CCOc1ccccc1-c1nnc(SCC(=O)Nc2ccc3c(c2)OC2(CCCCC2)O3)o1 | -11% | 9% |
| CC(=O)C1=C(c2ccc(Cl)c(Cl)c2)N(C(C)=O)n2cnnc2S1 | -10% | ? |
| Cc1ccc(-n2nnnc2C2(NC3CCCCC3)CCCCC2)cc1 | 213%[activator] | 6% |
| O=C(NCCSc1c[nH]c2ccccc12)c1ccccc1Cl | -19% | -11% |
| COc1ccc(NC(=O)Cn2cnc3ccc(S(=O)(=O)N4CCC(C)CC4)cc3c2=O)c(OC)c1 | -3% | -3% |
| CN(C)C(CNC(=O)c1cc2ccccc2oc1=O)c1cccs1 (stereo not given) | -17% | 110%[activator] |
| Cc1ccc2[nH]cc(CCn3ccc4c(cnc5ncnn54)c3=O)c2c1 | -17% | 20% |
| Cc1ncc(-c2ccc(S(=O)(=O)Nc3ccc(F)c(F)c3)cc2)o1 | 222%[activator] | -5% |
| Fc1ccc(-c2cc(C(F)(F)F)[nH]n2)cc1 | 17% | 0% |
| COc1ccc(C2=NC(C)(C)N(CC(=O)Nc3cc(OC)cc(OC)c3)C2=O)cc1 | 0% | 0% |
| CN1C(C(=O)c2ccccc2)=C(OC(=O)c2ccc(Br)cc2)c2ccccc2S1(=O)=O | 34%[activator] | -5% |
| Cc1nc(CN2CCN(C(=O)NC(C)Cc3ccco3)CC2)cs1 (stereo not given) | -12% | 9% |
| CCCN1Cc2cccc(C(=O)Nc3ccc(OC)cc3OC)c2C1=O | 45%[activator] | 3% |
| CCOC(=O)Cn1c(=O)n(CC2CCCO2)c2nc(-c3cccc(C)c3)nc(C(N)=O)c21 (stereo not given) | -3% | -5% |
| Cc1nn(-c2ccc(=O)[nH]n2)c2c1C(c1ccc3nccnc3c1)CC(=O)N2 (stereo not given) | -1% | 8% |
| Cc1cc(C(=O)NCc2ccccc2)c2c(C)nn(-c3cccc(F)c3)c2n1 | 1% | 1% |
| CC(C)c1ccc(-c2csc(NC(=O)COCc3nc4ccccc4c(=O)[nH]3)n2)cc1 | -9% | 174%[activator] |
| COc1cc(/C=C/c2nc3ccccc3c(=O)n2-c2ccc(Br)c(C)c2)ccc1O | 23% | 58%[activator] |
| Cc1cccc(-c2nnc(SCC(=O)Nc3cc(C)on3)n2C)c1 | 15% | 0% |
| Cc1ccc(CNC(=O)N2CCC(CN3CCC(C)CC3)CC2)cc1 | -11% | -13% |
| O=S(=O)(Nc1cc(F)ccc1F)c1ccc2[nH]c3c(c2c1)CCCC3 | 96%[activator] | 9% |
| CC(NC(=O)c1cccs1)C(=O)N(CC#N)C1CC1 (stereo not given) | 2% | -13% |
| Clc1cc(CSc2nc3ccccc3o2)cc2c1OCCCO2 | ? | 51%[activator] |
| CCOc1ccccc1NC(=O)C(=O)c1cc(C)n(-c2cccc(C)c2C)c1C | -6% | 18% |
| Cc1ccc(CN(C)C(=O)Cn2nc(C)c3ccccc3c2=O)c(C)c1 | -4% | 23% |
| Cc1ccccc1CNC(=O)Cn1cnc(NC(=O)c2ccccc2)n1 | -5% | 0% |
| O=C(NCc1coc(-c2cccs2)n1)c1cccc(Br)c1 | 35%[activator] | 6% |
| C/C(=N\OC(=O)c1ccccc1Br)c1ccc(C)cc1 | 3% | 0% |
| COC(=O)c1ccc(Cl)cc1NC(=O)Cn1c(=O)n(Cc2ccc(F)cc2)c(=O)c2ccccc21 | -6% | -1% |
| CC(=O)Nc1ccc(C(C)=O)cc1OCc1cccc(C)c1 | 3% | 79%[activator] |
| CCN(CC)S(=O)(=O)c1ccc(C(=O)NCCSc2c(-c3ccc(F)cc3)[nH]c3ccccc23)cc1 | -26% | -26% |
| CSc1cccc(NS(=O)(=O)c2ccc3[nH]cc(C(=O)N4CCCCCC4)c(=O)c3c2)c1 | 9% | -8% |
| Cn1c(=O)n(C)c2cc(CNCc3ccccc3)ccc21 | -10% | -1% |
